StopGo reporter: lowers the luciferase signal of an FMDV 2A StopGo reporter. human cells with a luciferase reporter of 2A StopGo recoding; control for the full effect not named in the record. Potency, µM (highest dose often 57.9 µM), inactives show at the top dose signal change, negative = less light. hit rate 1.2% among 410,000; active = well fitted falling curve with a large enough effect; inconclusive = small, poorly fitted or top-dose-only effect; inactive = no such curve, though single readings can be large or run the other way; tested in HEK293T cells; note: % is set by controls: 0 for no effect and ±100 for the full control effect; nearly all actives have a fitted effect of over 45% in size; luciferase light after 4 h
NS1 inh: inhibitors of influenza NS1 protein function; hit rate 0.4% among 270,000; Potency, µM (series often up to 46.1 µM), inactives show at the highest dose activity, positive = more growth; S. cerevisiae slowed by influenza A NS1, growth recovery by OD600; active means well fitted rising curve with a large enough effect; inconclusive means small, poorly fitted or top-dose-only effect; inactive means no such curve, though single readings can be large or run the other way; note: nearly all actives have a fitted effect of over 50% in size
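Growth recovery, yeast-based: influenza A NS1 expressed in S. cerevisiae causes slow growth, and suppressors are detected by OD600. The parent strain without NS1 is used as positive control.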
RE007 growth inh: less growth of the S. pombe RE007 Vpr strain. S. pombe RE007 Vpr strain, BacTiter-Glo ATP luminescence, 24 h; control for the full effect not named in the record. Potency, µM (series often up to 92.2 µM), without a hit: at the top dose activity change, negative = less growth. hit rate 0.21% among 360,000; active = well fitted falling curve with a large enough effect; inconclusive = small, poorly fitted or top-dose-only effect; inactive = no such curve, though single readings can be large or run the other way;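 note: % is set by controls: 0 for no effect and ±100 for the full control effect; nearly all actives have a fitted effect of over 50% in size; the assay follows cell death caused by Vpr and the record does not say whether a fall means rescue or toxicity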
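Fission yeast RE007 carrying one integrated HIV-1 vpr copy, seeded at OD 0.01 in PMG+AL medium with 23 nL pinned compound. Grown 24 h at 30 degrees; viability read by BacTiter-Glo luminescence after 5 min.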
Marburg entry inh: inhibitors of Marburg virus binding or cell entry; Marburg virus pseudotyped entry inhibition, cell reporter; control for the full effect not named in the record; about a third of the inactives were read at about 46 µM; Potency, µM (top dose mostly 37.8 µM), for the others: top-dose activity change, negative = inhibition, hits mostly inhibitors; hit rate 1.8% among 300,000; active = well fitted inhibition curve with a large enough effect; inconclusive = small, poorly fitted or top-dose-only effect, or effect the other way; inactive = flat fitted curve, though single readings scatter; tested in HEK293 cells; about a fifth of its hits are not listed in these tables; note: % is set by controls: 0 for no effect and ±100 for the full control effect; luciferase read-out
Cruzain inh noDet: cruzain (T. cruzi) inhibition without detergent | P25779 | purified cruzain, Z-FR-AMC fluorescence, no detergent | Potency, µM, for inactives: max response, negative = inhibition, most hits filed as inhibitors | hit rate 2.3% among 200,000 | AID 1476;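 note: plate controls were enzyme without inhibitor for no effect and buffer without enzyme for full effect; nearly all actives have a fitted effect of over 40% in size; top concentration of the series not given in the record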
Target sequence (P25779 123-467 limits assumed): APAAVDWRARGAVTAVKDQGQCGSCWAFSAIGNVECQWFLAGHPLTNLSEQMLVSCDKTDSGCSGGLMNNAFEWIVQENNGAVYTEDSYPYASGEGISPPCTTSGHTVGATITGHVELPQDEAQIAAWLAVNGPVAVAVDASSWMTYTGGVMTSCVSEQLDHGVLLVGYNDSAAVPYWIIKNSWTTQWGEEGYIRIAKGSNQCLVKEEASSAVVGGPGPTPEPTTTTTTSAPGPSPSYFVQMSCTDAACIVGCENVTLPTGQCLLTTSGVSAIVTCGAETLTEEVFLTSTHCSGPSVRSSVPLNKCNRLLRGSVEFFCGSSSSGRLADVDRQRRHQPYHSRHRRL
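Detergent-free condition (0.00005% Triton X-100) in acetate buffer pH 5.5 with DTT. 1.5 nM enzyme and compound were pre-mixed 15 min, then 2 uM Z-FR-AMC substrate added; reaction progress from fluorescence change between first and third reads (60 s).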
LASV entry inh: blocks Lassa virus binding to or entry into cells. Lassa virus pseudotype entry inhibition, cell reporter; control for the full effect not named in the record. Potency, µM (series often up to 37.9 µM), for the others: top-dose activity change, negative = inhibition, usual class: inhibitors. hit rate 1.2% among 300,000. AID 540256; active means well fitted inhibition curve with a large enough effect; inconclusive means small, poorly fitted or top-dose-only effect, or effect the other way; inactive means flat fitted curve, though single readings scatter; tested in HEK293 cells; note: % is set by controls: 0 for no effect and ±100 for the full control effect; nearly all actives have a fitted effect of over 50% in size; luciferase read-out
Cruzain inh Det: inhibitors of Trypanosoma cruzi cruzain with detergent. hit rate 0.43% among 200,000. purified cruzain, Z-FR-AMC fluorescence, 0.01% Triton. Potency, µM, for inactives: max response, negative = inhibition, usual class: inhibitors. P25779;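 note: plate controls were neutral wells for no effect and buffer without enzyme for full effect; nearly all actives have a fitted effect of over 40% in size; top concentration of the series not given in the record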
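Purified cruzain (1.5 nM final) was preincubated with compounds for 15 min at room temperature in 100 mM sodium acetate pH 5.5, 5 mM DTT, 0.01% Triton X-100. Reaction started with 2 uM Z-FR-AMC; AMC fluorescence change over 60 s gave activity.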
SARS PLP yeast: blocks SARS-CoV papain-like protease in a yeast assay; S. cerevisiae expressing SARS-CoV PLpro, growth rescue; control for the full effect not named in the record; Potency, µM (highest dose often 32.9 µM), for the others: top-dose activity, positive = growth rescue; hit rate 0.19% among 330,000; AID 485353; active means well fitted rising curve with a large enough effect; inconclusive means small, poorly fitted or top-dose-only effect; inactive means no such curve, though single readings can be large or run the other way; note: 0% is about no effect; nearly all actives have a fitted effect of over 55% in size; growth read by luminescence after 48 h
* = called active by the depositor; ? = inconclusive; . = no result given; & = joins results of further samples; [ ] = remark or other dose. Unless noted, calls come from the whole dose curve; as a rule, active = well fitted curve in the direction sought with a large enough effect; inconclusive = small, poorly fitted or top-dose-only effect, or another doubt; inactive = no such curve, though single readings can be large; an effect the other way counts as inactive or inconclusive. Potency is the fitted concentration of half-maximal effect.

SMILES	StopGo reporter	NS1 inh	RE007 growth inh	Marburg entry inh	Cruzain inh noDet	LASV entry inh	Cruzain inh Det	SARS PLP yeast
O=C(Nc1cc(Sc2ccccn2)cc([N+](=O)[O-])c1)c1cccc(Cl)c1	25.1µM*	24.9%	20.3%	?	?	-9.4%	-7.5%	-8.1%
O=C(OCc1ccc(F)cc1)c1cc(=O)c2ccccc2o1	13.7%	-34.9%	2.9%	15.3%[46.1 µM]	.	27.7%[46.1 µM]	.	-8.1%
COC(=O)c1ccccc1NC(=O)c1noc2c1CCC2	-1.6%	-2.2%	8.2%	2.8%	-10.5%	14.9%	-10.8%	1.4%
c1ccc(-c2nnc(N3CCN(c4ccccn4)CC3)c3ccccc23)cc1	-17.8%	-71.0%	18.5%	-51.6%	-2.6%	?	-5.4%	-17.2%
CCOc1ccc(-c2nnc(SCC(=O)NCCc3ccccc3)nc2-c2ccc(OCC)cc2)cc1	-9.5%	.	.	.	0.3%	?	0.6%	.
O=C(Nc1ccc(F)cc1)c1ccc2c(=O)n3c(nc2c1)CCCCC3	-8.6%&0.0%	-1.7%	11.4%	.	-11.1%	3.9%[46.1 µM]	-6.2%	-7.0%
Cc1ccc(-c2c(C(=O)N/N=C/C3CC=CCC3)nnn2-c2nonc2N)cc1 (centres undefined)	-19.0%	20.1%	-9.3%	.	.	.	.	-2.6%
COc1ccc(CCNC(=O)c2nn(C)c3c2CSc2ccccc2-3)cc1OC	-7.5%	.	.	1.8%[46.1 µM]	-1.5%	-11.7%[46.1 µM]	-8.1%	.
O=C(NCc1ccccc1)C(=O)NCC1OCCN1S(=O)(=O)c1cccs1 (centres undefined)	-20.2%	-0.9%	-0.9%	39.7%	6.4%	0.4%	-1.2%	1.0%
O=C(Cc1ccc(Cl)cc1)NCCCn1ccnc1	10.5%	11.3%	-5.9%	10.8%	-10.1%	2.1%	0.6%	-1.2%
COCc1nc2sc(C)c(C)c2c(=O)[nH]1	-9.1%	-23.5%	1.6%	7.4%[46.1 µM]	-13.8%	0.0%	-2.4%	-22.2%
CCN(CC)c1ccc(NC(=O)CCCOc2cccc(C)c2)cc1	-1.5%	.	-7.0%	7.7%[46.1 µM]	.	8.2%	.	0.7%
O=C1c2ccccc2-c2c1cccc2C(=O)N1CCOCC1	13.6%	3.3%	-21.1%	14.7%	-11.5%	8.3%	1.5%	9.4%
Cc1ccc(-n2cc(C(=O)c3ccc4ccccc4c3O)cn2)cc1	7.5%	15.0%	4.7%	20.4%	?	7.1%	-0.7%	2.1%
Cc1cccc(NC(=O)c2cccc(NS(=O)(=O)c3ccc(Cl)cc3)c2)c1	-3.4%	3.2%	-5.3%	-13.6%[46.1 µM]	5.6%	-11.9%	-5.9%	-10.0%
NC(=O)Nc1ccc2c(c1)OCCO2	44.9%[activator]	1.7%	10.0%	31.0%	-4.8%	12.8%	2.1%	4.6%
COC(=O)c1ccccc1NC(=O)CN(CCc1ccccc1)S(C)(=O)=O	-3.8%	?	13.3%	?	-6.9%	-24.7%	-3.0%	.
FC(F)(F)c1cc(Cl)c2nnc(-c3cccnc3)n2c1	-3.5%	11.1%	-17.8%	16.6%[46.1 µM]	.	-1.7%[46.1 µM]	.	0.6%
Cn1cc(C(=O)OCC(=O)Nc2ccccc2Cl)c2ccccc21	-14.4%	.	-11.5%	-5.9%	.	?	.	-9.0%
CCCS(=O)(=O)N1CCCC(C(=O)Nc2ccc3c(c2)CCC3)C1 (centres undefined)	10.6%	14.4%	5.7%	-3.8%	.	-7.4%	.	-0.5%
O=C(NNC(=S)NC1CC2C=CC1C2)c1cccnc1 (centres undefined)	-13.0%	-2.6%	-3.0%	-5.5%[46.1 µM]	.	-9.2%	.	0.1%
CC(Oc1cccc(Cl)c1)C(=O)NNC(=O)c1cccnc1 (centres undefined)	-2.2%	.	0.6%	13.1%	.	.	.	-3.7%
CCCNc1nc2c(c(=O)[nH]c(=O)n2C)n1Cc1cccc(Br)c1	-27.6%	-1.7%	-1.8%	8.0%[46.1 µM]	-11.4%	-2.6%	-0.7%	-0.1%
CCn1c(CSc2nnc(-c3ccc4c(c3)OCO4)o2)nc2cc(S(=O)(=O)N(C)C)ccc21	?	16.9%	-0.1%	-20.6%	-1.3%	-8.2%	3.1%	-0.7%
CCc1ccc(/C=C2/SC(N3CCOCC3)=NC2=O)cc1	6.2%	-9.6%	-0.1%	9.3%[46.1 µM]	.	?	.	-1.9%
COc1ccccc1N1CCN(C(=O)Nc2cccc(Cl)c2)CC1	23.4%	-11.5%	18.0%	5.6%	-5.6%	3.2%	-1.7%	1.7%
CCOC(=O)c1c(NC(=O)c2cccs2)sc2c1CCC2	.	-2.1%	-1.2%	1.0%	?	-1.1%	-3.1%	4.6%
Cc1ccccc1OCCCN1C(=O)C(=O)c2cccc(C)c21	1.7%	-119.1%	?	.	?	.	-7.5%	-38.5%
CCOC(=O)N1CCN(c2cc(NCCC(=O)O)c3c4c(onc24)-c2ccccc2C3=O)CC1	0.0%	-8.0%	?	-4.4%	?	-14.0%	?	-4.2%
Cc1ccc(Nc2nc(C(N)=O)c(NC(=O)c3ccccc3Br)s2)cc1	4.7%	.	.	.	?	-14.1%[46.1 µM]	-5.5%	.
COc1ccc(OC)c(/C=C2\SC(=S)N(Cc3cccnc3)C2=O)c1	?	9.3%	.	?	9.5%	?	-2.8%	7.5%
COc1ccc(C(=O)NC(=S)Nc2ccc3oc(=O)ccc3c2)cc1[N+](=O)[O-]	?	-7.2%	6.9%	0.5%	.	0.4%	.	2.4%
Cc1nc2sccn2c(=O)c1S(=O)(=O)N1CCN(c2ccc(F)cc2)CC1	-7.8%&-22.0%	9.1%	9.3%	.	1.0%	2.0%[46.1 µM]	-1.4%	-4.7%
COc1ccc(C)cc1NC(=O)CCCNC(=O)Cn1cnc2sc(C)c(C)c2c1=O	-3.1%	10.5%	-8.9%	1.0%[46.1 µM]	.	5.2%	.	0.4%
CCOC(=O)C1CCN(C(=O)Nc2ccc3snnc3c2)CC1	-17.7%	-12.1%	-15.6%	-11.8%	-4.9%	-6.4%	-1.5%	-0.8%
Fc1cccc(CO/N=C/c2c(-c3ccccc3)nc3ccc(Cl)cn23)c1	9.4%	1.4%	-20.1%	-0.4%	-9.7%	-3.9%	-2.2%	-1.9%
CCN(CCCNC(=O)Cn1ncc2c([nH]c3ccc(C)cc32)c1=O)c1ccccc1	-12.1%&-11.9%	-2.5%	14.9%	6.9%&6.9%[46.1 µM]	-6.7%	-2.6%&29.4%[46.1 µM]	1.7%	-2.2%
O=C(CCc1nnc2ccc(NCc3ccco3)nn12)N1CCN(c2ccccc2F)CC1	-8.3%	10.3%	2.8%	.	.	.	.	0.3%
Cc1ccccc1C(=O)NC(=S)Nc1ccccc1C(F)(F)F	-4.2%	5.1%	-7.5%	-5.6%	-3.9%	-19.1%	-8.0%	10.6%
COc1cc(=O)[nH]c(SCc2c(F)c(F)c(F)c(F)c2F)n1	-11.3%	-24.9%	-11.1%	2.5%	-8.2%	17.0%[14.3 µM]	2.5%	-0.4%
NC(CSC(c1ccccc1)(c1ccccc1)c1cccc2ccccc12)C(=O)O (centres undefined)	0.0%	.	9.6%	-13.6%	.	11.5%[46.1 µM]	.	.
COc1ccc(C(=O)NC(=S)Nc2ccc3c(c2)Cc2ccccc2-3)cc1	?	-2.7%	-9.7%	-15.0%	?	-19.5%	4.3%	19.6%
O=C(c1ccc2c(c1)N(Cc1ccccc1F)C(=O)c1ccccc1S2(=O)=O)N1CCCC1	12.1%&15.4%	-2.1%	-5.6%	-12.9%&-12.9%[46.1 µM]	?	10.0%[46.1 µM]	2.1%	3.2%
CN(c1ccccc1)c1ncnc2c1cnn2C	-17.3%	.	.	.	-1.7%	-7.7%[46.1 µM]	0.5%	.
COc1cccc(Nc2nc(-c3sc(NC(=O)c4ccccc4)nc3C)cs2)c1	-18.4%	1.7%	-20.5%	.	?	.	1.4%	-2.1%
COc1ccccc1CNC(=O)c1ccccc1NS(C)(=O)=O	-2.1%	-1.2%	13.4%	5.5%	5.6%	-22.2%	4.5%	-16.8%
COc1ccc(NC(=S)N(CCCN2CCOCC2)Cc2cn(C)c3ccccc23)cc1OC	15.6%	12.8%	-11.3%	?	-3.7%	?	-2.4%	3.8%
Cc1cccc(NC(=O)CCCCC(=O)Nc2cccc(C)c2)c1	5.0%	.	28.3%	2.3%[46.1 µM]	.	-0.7%	.	.
C(=Cc1cccnc1)c1ccncc1	17.5%	.	2.9%	-10.1%[46.1 µM]	.	-2.4%[46.1 µM]	.	.
O=C(NCc1ccc(F)cc1)C1CCCN1C(=O)NCc1ccccc1 (centres undefined)	-10.6%	-1.4%	-1.2%	0.4%	6.9%	6.3%	2.6%	0.0%
COc1cccc(NC(=O)Nc2cccc(-c3cn4cccnc4n3)c2)c1	-23.4%	.	.	14.8%[46.1 µM]	-3.3%	11.2%[46.1 µM]	-0.6%	.
CC1CCCC(C)N1C(=O)COC(=O)CNC(=O)c1ccc(Cl)cc1Cl (centres undefined)	-2.2%	.	2.4%	0.6%	.	-6.0%	.	-1.7%
Cc1nc2cc(NCc3nc4ccccc4n3Cc3ccccc3)ccc2n1C	-30.0%	7.3%	-17.4%	10µM*	-0.2%	?	-2.3%	-13.2%
O=C(Nc1ccc(Cl)c(Cl)c1)N1CCSC1c1ccco1 (centres undefined)	?	-81.0%	-6.1%	-8.7%	-23.6%	9.7%	-12.4%	-35.4%
CCOc1ccccc1C1N(c2ccc(OC)cc2)C(=O)C2CCCN21 (centres undefined)	-10.9%	?	6.7%	.	-5.6%	.	1.8%	1.9%
CC(C(=O)Nc1ccc(S(=O)(=O)N2CCCC2)cc1)N1CCN(C(=O)c2ccco2)CC1 (centres undefined)	-2.3%	-1.6%	13.7%[3.69 µM]	-2.1%	20.2%	7.0%	3.9%	3.4%

Assay outcomes: PubChem BioAssay, National Center for Advancing Translational Sciences (NCATS)

Rows are unselected; 4.7% or so of the library scored in one or more.
